# Assay outcomes from PubChem.
# GLA inh pH 4.5 = blocks human alpha-galactosidase A at pH 4.5 | P06280 | purified enzyme, 4-MU-alpha-Gal fluorescence, pH 4.5 | activity change, negative = inhibition, % at 105 µM | 230,000 tested, under 10 active | AID 1467; inconclusive = small, poorly fitted or top-dose-only inhibition, or a rising curve; inactive = flat fitted curve, though single readings scatter; no compound was filed as active;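 further: 0% = full activity with enzyme and -100% = basal without enzyme; dose as in the result columns while the protocol names 77 µM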
# Rango complex inh = inhibitors of Rango-importin beta complex formation; actives 0.031% (n = 340,000); Potency, µM (highest dose often 92.2 µM), for the others: at the top dose inhibition of complex formation; Q14974; Rango CFP/YFP FRET sensor + importin beta, 45 min; active = rising FRET ratio curve, often small or poorly fitted; inconclusive = mostly compound fluorescence or quenching in the first reads; inactive = flat curves in all reads;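 further: potency means the concentration at half of the fitted maximal effect; 0% = DMSO wells and 100% = buffer wells lacking importin beta; nearly all actives have a fitted effect of over 15% in size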
# Target sequence (Q14974 whole entry, looked up): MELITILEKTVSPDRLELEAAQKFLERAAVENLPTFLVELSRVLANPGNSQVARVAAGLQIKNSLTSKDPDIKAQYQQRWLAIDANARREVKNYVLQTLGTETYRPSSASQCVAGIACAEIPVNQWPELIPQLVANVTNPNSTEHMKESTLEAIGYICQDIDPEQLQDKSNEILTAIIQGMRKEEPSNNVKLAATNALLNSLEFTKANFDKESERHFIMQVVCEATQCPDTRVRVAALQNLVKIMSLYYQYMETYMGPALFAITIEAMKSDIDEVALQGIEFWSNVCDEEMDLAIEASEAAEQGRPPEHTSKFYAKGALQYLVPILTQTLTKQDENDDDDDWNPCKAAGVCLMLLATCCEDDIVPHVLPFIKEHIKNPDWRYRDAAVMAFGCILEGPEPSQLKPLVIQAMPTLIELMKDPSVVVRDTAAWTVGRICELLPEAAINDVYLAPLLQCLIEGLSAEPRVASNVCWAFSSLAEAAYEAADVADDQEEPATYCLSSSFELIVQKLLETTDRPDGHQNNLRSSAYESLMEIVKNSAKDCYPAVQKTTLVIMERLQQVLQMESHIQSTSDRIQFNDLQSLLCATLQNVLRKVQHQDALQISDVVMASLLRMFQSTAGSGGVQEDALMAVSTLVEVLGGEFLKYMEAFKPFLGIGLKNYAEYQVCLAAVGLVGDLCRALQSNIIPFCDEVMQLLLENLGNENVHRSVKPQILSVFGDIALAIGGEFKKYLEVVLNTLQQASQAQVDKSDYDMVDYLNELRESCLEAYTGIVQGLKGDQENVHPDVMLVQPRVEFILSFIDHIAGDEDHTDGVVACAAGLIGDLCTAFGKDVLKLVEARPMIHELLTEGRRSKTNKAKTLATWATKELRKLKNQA
#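 FRET biosensor (snurportin 1 IBB flanked by EYFP and cerulean), 50 nM, with compound 5 min, then 0.125 microM importin beta in PBS, 1 mM DTT, 0.02% Tween-20, 0.1% BSA. CFP/YFP ratio read after 45 min at room temperature; pre-read flags interference.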
# miR-21 reporter = miR-21 reporter, rising signal. 340,000 tested, under 10 active. Potency, µM (top dose mostly 38.3 µM), inactives show top-dose reporter change, positive = more light. HeLa miR-21 FLuc reporter, luciferase, 48 h; active = well fitted rising curve with a large enough effect; inconclusive = small, poorly fitted or top-dose-only effect; inactive = no such curve, though single readings can be large or run the other way;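 further: % of control where 0% means no effect; miR-21 action dims this reporter so a rising signal means less miR-21 action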
#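 Using DMEM plus 10% FBS, HeLa miR-21-FLuc cells are incubated with test compounds (final up to about 40uM) for 48 hours; firefly luciferase signal is then imaged following reagent-mediated lysis.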
# Rango dissoc inh = prevents RanGTP from dissociating the Rango-importin beta complex; O95149+P62826; Biochemical FRET Rango-importin beta, RanGTP-induced dissociation; Potency, µM (top dose mostly 46.1 µM), for inactives: at the highest dose activity change, negative = inhibition; actives 0.071% (n = 340,000); AID 540253; active means falling FRET ratio curve, often poorly fitted, with flat reads before Ran was added; inconclusive means other falling curves, or compound fluorescence or quenching; inactive means flat or rising ratio curve;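 further: potency means the concentration at half of the fitted maximal effect; % of control where 0% means no effect; nearly all actives have a fitted effect of over 45% in size; -100% = wells without RanGTP and RCC1; the record marks most hits as doubtful in a second field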
#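 Quantitative HTS using a FRET biosensor: 0.1 uM Rango, 0.25 uM importin beta, 0.6 uM Ran, 2 mM GTP, 0.2 uM RCC1 final, PBS with DTT, Tween-20 and BSA. Post-read taken 45 min after Ran addition.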
# Active calls of the source: *; ? = inconclusive; . = not tested or not shown; & = joins results of further samples; [ ] = dose if it differs, or a comment.
SMILES,GLA inh pH 4.5,Rango complex inh,miR-21 reporter,Rango dissoc inh
COc1ccccc1CNC(=O)C1COc2ccccc2O1 (stereo unspecified),-20,6.6%,-51%,4%
CCN1CCN(CC(=O)N2N=C(c3cccs3)CC2c2ccc(OC)c(OC)c2)C(=O)C1=O (stereo unspecified),4,-0.1%,-3%,6%
O=C(Cc1ccccc1)NC1CCN(C(=O)c2ccc([N+](=O)[O-])cc2)CC1,.,-1.1%,-2%,17%
O=C(O)c1csc(N/N=C/c2ccc(Br)cc2)n1,-2,-3.6%,-37%,-17%
COc1cc(C(=O)Nc2ccc(Cl)c([N+](=O)[O-])c2)cc(OC)c1OC,8,0.3%,-5%,-13%
CC(=O)Nc1ccc(C(=O)CS(=O)(=O)c2ccc(C)cc2)cc1,-2,-0.2%,-9%,-10%
CC(C)C[C@H](NC(=O)c1[nH]cnc1C(=O)Nc1ccc(Cl)cc1)C(=O)OC(C)(C)C,?,4.9%,0%,1%
C=CCSC1=Nc2cc(OC)c(OC)cc2C2=NC(=O)CN12,18,0.5%,-5%,-7%
COc1ccc(OC)c(NC(=O)CCN2CC(C)OC(C)C2)c1 (stereo unspecified),3,0.9%,-3%,2%
CC(O)[C@H]1CC[C@H]2[C@@H]3CC[C@H]4C[C@H](O)CC[C@]4(C)[C@H]3[C@H](O)C[C@]12C (stereo partly specified),.,-5.5%,.,8%
NS(=O)(=O)c1cccn1-c1ncc(C(F)(F)F)cc1Cl,3,?,0%,12%
COc1ccc(NC(=O)NN2CCOCC2)cc1OC,10,0.4%,5%,0%
CCCCCCCCCCCCCCCC[n+]1ccc(C(N)=O)cc1,-13,12%,28%,2%
COc1cc(OC)cc(C(=O)Nc2ncn[nH]2)c1,.,-4.2%,.,-10%
Cc1ccc(SCC(=O)NNC(=O)CCS(=O)(=O)c2ccccc2)cc1,.,-1.1%,.,-16%
CSc1ccccc1NC(=O)CN(C)CC(=O)Nc1c(F)cccc1F,3,2.0%,-3%,-2%
COc1cc(COc2ccc3c(C)c(Cc4ccccc4)c(=O)oc3c2)cc(OC)c1OC,6,-2.4%,-5%,-9%
O=S(=O)(O)C1CCNCC1,9&-5,.,-1%,.
O=C(Nc1nc2ccccc2[nH]1)Nc1ccccc1F,.,-2.8%,-47%,29%
CCOc1ccc(C(=O)NNC(=O)C2CC(=O)N(c3ccc(C)cc3)C2)cc1 (stereo unspecified),.,1.5%,.,-14%
Cc1ccccc1C(=O)Nc1cc(S(=O)(=O)N2CCCCC2)ccc1N1CCN(C)CC1,-1,-3.7%,-4%,-5%
Cc1c(CC(=O)NCCCC(=O)O)c(=O)oc2c(C)c3oc4c(c3cc12)CCCC4,.,0.1%,-4%,11%
CCNC(=O)CN1C(=O)NC2(CCOc3ccccc32)C1=O (stereo unspecified),.,-3.7%,-2%,15%
Cn1c(C2CCCN2C(=O)OC(C)(C)C)n[nH]c1=S (stereo unspecified),-5,-0.2%,0%,0%
COc1ccc(N(CCC(=O)NCCc2ccccc2)S(=O)(=O)c2ccc(C)cc2C)cc1,.,1.7%,.,1%
CCN(C(=O)COC(=O)c1cc(S(=O)(=O)N2CCOCC2)ccc1F)C1CCS(=O)(=O)C1 (stereo unspecified),.,4.0%,.,-3%
Cc1cccc(C(=O)NCCCNC(=O)c2ccccn2)c1,.,6.5%,-2%,0%
O=C(Nc1cccnc1)c1ccccc1-c1nc(-c2ccccc2F)no1,-5,6.8%,0%,-12%
COc1ccc(CNCCCC(=O)Nc2c(Cl)ccc(C)c2Cl)cc1OC,.,-2.1%,0%,12%
CCn1c(Cc2ccccc2)nnc1SCC(=O)NC(C)(C)C,3,1.1%,-1%,10%
CCCc1ccc(-c2ccc(-c3noc(-c4ccncc4)n3)cc2)nc1,.,-0.4%,-2%,-1%
O=C(NCc1ccc2c(c1)OCO2)c1cnc2n(c1=O)CCS2,-9,3.4%,-10%,-15%
Cc1ccc(NC(=O)N2CCC(C(=O)Nc3ccc(C)cc3C)CC2)cc1,-7,-1.9%,0%,-1%
CN(C)CCCN(C(=O)c1ccc(S(=O)(=O)N2CCOCC2)cc1)c1nc2ccc(F)cc2s1,.,-3.0%,-14%,-3%
CCOc1ccc(NC(=O)c2cccc3c2C(=O)N(CCOC)C3)cc1,5,5.1%,-12%,-6%
CCOCCCNCc1ccc(Cl)cc1,-7,1.4%,-7%,-10%
O=C(/C=C/c1ccco1)N(Cc1cccc(Cl)c1)C1CCS(=O)(=O)C1 (stereo unspecified),-4,-1.2%,-5%,-20%
O=C(O)c1cnn2c(-c3ccc(F)cc3)ccnc12,-7[21.1 µM],?,3%,36%
Cc1cc(NC(=O)CSc2nc(-c3cccnc3)ccc2C#N)no1,-6,-1.1%,-8%,6%
Cc1cccc(C(C(=O)NC2CCCCC2)N(C(=O)c2csnn2)C2CC2)c1 (stereo unspecified),.,-0.4%,11%,2%
CC(C)NC(=O)CCN1C(=O)c2ccccc2Sc2ncccc21,.,0.2%,-1%&-1%,19%
CC(=O)c1cc(C(=O)N2CCc3c([nH]c4ccccc34)C2CC(C)C)[nH]n1 (stereo unspecified),-3,-3.8%,-5%,-16%
COC(=O)Cn1ncc(N2CC(C)OC(C)C2)c(Cl)c1=O (stereo unspecified),.,0.2%,-2%,19%
CC(C)CN(C(=O)COC(=O)CNC(=O)c1ccc(Cl)cc1)C1CCS(=O)(=O)C1 (stereo unspecified),-5,4.0%,3%,11%
CCCc1cc(=O)n2[nH]c(C)c(-c3ccc(OC)cc3)c2n1,.,-0.2%,-1%,-5%
Cc1cccc(/C(N)=N/OC(=O)CCCN2C(=O)c3ccccc3C2=O)c1,-16,-2.5%,-7%,-19%
NC(=O)COC(=O)c1cc(=O)[nH]c2ccccc12,0,-0.5%,-2%,11%
CC(Sc1nc2ccccc2[nH]1)C(=O)NC1CCCCC1C (stereo unspecified),.,-2.2%,18%,1%
CCOC(=O)C1CCN(c2cc(=O)n(-c3ccccc3Cl)c(=O)[nH]2)CC1,5,0.7%,1%,0%
O=[N+]([O-])/C(C=Nc1ccccc1O)=C\Nc1ccccc1O,-5,3.2%,-9%,-1%

# Two of these compounds in a different format.
Molecule	GLA inh pH 4.5	Rango complex inh	miR-21 reporter	Rango dissoc inh
Cc1ccc(SCC(=O)NNC(=O)CCS(=O)(=O)c2ccccc2)cc1	.	-1.1%	.	-16%
CSc1ccccc1NC(=O)CN(C)CC(=O)Nc1c(F)cccc1F	3	2.0%	-3%	-2%

# (next part)
SMILES,GLA inh pH 4.5,Rango complex inh,miR-21 reporter,Rango dissoc inh
O=C(Cc1cccs1)NCCc1cn2ccccc2n1,1,-0.5%,-2%,-8%
O=C(O)c1ccc(CSc2nnnn2C2CCCCC2)cc1,8,-0.7%,-10%,-3%
Cc1cc(C)nc(SCC(=O)NC2=NC(=O)C(C)S2)n1 (stereo unspecified),6,-3.5%,-4%,6%
Cc1ccc(/C=C/C(=O)Nc2cc(=O)n(C)c(=O)n2C)o1,-5,?,-7%,?
Clc1ccc(-c2ccc(/C=N/Nc3cc(N4CCOCC4)nc(N4CCOCC4)n3)o2)cc1,-2,?,-5%,?
COc1cc(C(=O)N/C(=C\c2cn(C)c3ccccc23)C(=O)NCCN2CCOCC2)cc(OC)c1OC,.,2.1%,0%,0%
COc1cc(NC(=O)c2ccc(Br)o2)c(C(=O)O)cc1OC,-6,4.4%,-1%,16%
COc1ccc(-c2ccc3c(c2)C2CC3CCN2CCC#N)cc1 (stereo unspecified),.,-0.9%,.,-3%
C=CCN1C(=O)c2ccc(C(=O)N(C)CC(=O)Nc3cccc(F)c3)cc2C1=O,.,-0.8%,-1%,-15%
COc1ccc(-c2nn(-c3ccccc3)cc2C(=O)N2CCN(S(=O)(=O)c3cccc(F)c3)CC2)cc1,.,0.7%,.,17%
C=CCOc1c(Cl)cc(CNn2cn[nH]c2=S)cc1OC,8,0.8%,-18%,8%
Cc1nn(C(=O)c2ccco2)c(C)c1Sc1ccc([N+](=O)[O-])cc1,2,4.5%,1%,6%
CC(C(=O)N1CC2(C)CC1CC(C)(C)C2)N1C(=O)c2ccccc2C1=O (stereo unspecified),-6,1.7%,0%,0%
COc1cc(/C=C/C(=O)OCC(=O)NC(=O)NC2CCCCC2)ccc1OC(F)F,.,7.8%,-1%,2%
CN(C)c1ccc(C(O)P(=O)(OCc2ccccc2)c2ccc(N(C)C)cc2)cc1 (stereo unspecified),1,1.2%,12%,0%
COc1cccc(CC(=S)N2CCOCC2)c1,4,0.3%,-12%,-11%
Cc1ccc(NC(=S)NNC(=O)c2ccco2)cc1,7,-0.4%,-56%,-11%
Cc1cc(O)cc2c(=O)c3ccccc3sc12,4,?,-87%,?
Cc1nc2ccc(C(=O)Nc3cccc([N+](=O)[O-])c3)cc2s1,1,-4.2%,-22%,-2%
O=C(CCCCCN1C(=O)[C@@H]2Cc3ccccc3CN2C1=O)NCCc1ccccc1,.,-3.3%,-10%,-7%
Cc1cc[n+](-c2nc([O-])sc2/C=N/Nc2ccc([N+](=O)[O-])cc2)cc1,-3,3.6%,1%,6%
CCOC(=O)c1sc(NS(=O)(=O)c2ccccc2)nc1C,-1,-0.2%,-3%,22%
Cn1c(C(=O)N2CCN(C(=O)c3ccco3)CC2)cc2c(=O)n3ccccc3nc21,-9,3.3%,-16%,-13%
CCCC(=O)N(c1ccc(OC)cc1)C1C=CS(=O)(=O)C1 (stereo unspecified),1,-1.7%,-1%,-14%
CCOC(=O)C(C)n1cnc2c(cnn2-c2ccc(Cl)cc2)c1=O (stereo unspecified),6,-0.9%,-4%,2%
N#C/C(=C\c1cccc(Oc2ccc(C(F)(F)F)cc2[N+](=O)[O-])c1)c1nc2ccccc2[nH]1,-9,?,-30%,-11%
COc1ccc(C)cc1NC(=O)NC(C)c1ccncc1 (stereo unspecified),5,-2.9%,0%,9%
CCCCNC(=O)C1CC(=O)N(CCC(C)C)C1 (stereo unspecified),2,-4.9%,-1%,?
COc1ccc(N(C)S(=O)(=O)c2cccc(C(=O)NCC3CCCO3)c2)cc1 (stereo unspecified),7,1.5%,-4%,6%
CCOc1ccc(CCNC(=O)COC(=O)c2cc(OC)cc(OC)c2)cc1OCC,-12,0.6%,5%,2%

# Random excerpt: 5 records from the list, in no set order.
SMILES,GLA inh pH 4.5,Rango complex inh,miR-21 reporter,Rango dissoc inh
Cc1cc[n+](-c2nc([O-])sc2/C=N/Nc2ccc([N+](=O)[O-])cc2)cc1,-3,3.6%,1%,6%
CCCC(=O)N(c1ccc(OC)cc1)C1C=CS(=O)(=O)C1 (stereo unspecified),1,-1.7%,-1%,-14%
CCOc1ccc(CCNC(=O)COC(=O)c2cc(OC)cc(OC)c2)cc1OCC,-12,0.6%,5%,2%
COc1ccc(N(C)S(=O)(=O)c2cccc(C(=O)NCC3CCCO3)c2)cc1 (stereo unspecified),7,1.5%,-4%,6%
N#C/C(=C\c1cccc(Oc2ccc(C(F)(F)F)cc2[N+](=O)[O-])c1)c1nc2ccccc2[nH]1,-9,?,-30%,-11%

# (list continues)
SMILES,GLA inh pH 4.5,Rango complex inh,miR-21 reporter,Rango dissoc inh
COc1cc2sc3ccc(C#Cc4ccc(N)cc4)cc3c(=O)c2cc1OC,.,-0.1%,.,-23%
Cc1c(C(=O)Nc2nc3ccccc3[nH]2)oc2ccc(Br)cc12,-2,-1.3%,-31%,-12%
Cc1nn(Cc2ccccc2)c(C)c1CCC(=O)O,-14,-3.7%,-6%,1%
COc1ccc(-n2c(=S)[nH]c3cc(C(=O)N4CCN(c5ccccc5)CC4)ccc3c2=O)cc1,.,4.4%,-2%,-10%
O=C(Nc1ccc(Cl)cc1)c1nc[nH]c1C(=O)NCCCCNC(=O)c1[nH]cnc1C(=O)Nc1ccc(Cl)cc1,.,0.9%,.,12%
CN(CC(=O)Nc1cccc(F)c1)C(=O)COc1ccc2c(c1)CCC2,.,-3.6%,.,-19%
COc1ccc(C2/C=C\CN(S(=O)(=O)/C=C/c3ccccc3)CC(=O)N2Cc2ccc(F)cc2)cc1 (stereo unspecified),-1,0.5%,21%,17%
CCOc1ccc(S(=O)(=O)N2CCCCC2)cc1NC(=O)CCNC(=O)c1ccco1,.,-1.3%,.,14%
CC(C)CC(=O)Nc1ccc(C(=O)COC(=O)C2CC(=O)N(Cc3ccccc3)C2)cc1 (stereo unspecified),.,-0.8%,.,0%
Cc1nc(SCc2ccc(OCCC(C)C)cc2)n[nH]1,-5,-0.1%,-17%,0%

# An excerpt (hit frequency here may not be typical).
